ClpP mod: qHTS Assay for Activators of ClpP; 340,000 compounds, 1.9% hits; ATP-dependent Clp protease proteolytic subunit (Bacillus subtilis (strain 168)), P80244; purified B. subtilis ClpP, FRET peptide cleavage, 20 min; Potency, µM (highest dose often 57.5 µM), for inactives: at the top dose activity change, negative = active; active = well fitted falling curve with a large enough effect; inconclusive = small, poorly fitted or top-dose-only effect; inactive = no such curve, though single readings can be large or run the other way; also: potency is read from the fitted curve at half-maximal effect; the source files actives as falling curves though it sought activators and does not explain the sign; nearly all actives have a fitted effect of over 65% in size; many hits overshoot -100%
Target sequence (P80244 whole entry, looked up): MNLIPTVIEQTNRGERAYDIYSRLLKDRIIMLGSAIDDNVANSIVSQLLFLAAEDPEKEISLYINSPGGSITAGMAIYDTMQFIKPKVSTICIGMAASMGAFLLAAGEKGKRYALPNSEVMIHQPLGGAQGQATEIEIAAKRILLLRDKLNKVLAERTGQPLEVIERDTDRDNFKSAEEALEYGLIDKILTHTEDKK
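Purified B. subtilis ClpP, 10 microg/mL final in Tris/HCl pH8 with KCl, BSA, glycerol and Tween-20, cleaved an Abz/nitrotyrosine-quenched decapeptide. Fluorescence (ex 320, em 430) was read at 0 and 20 min at room temperature. Delta was normalized to 5.8 microM ADEP and DMSO/no-enzyme controls.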
gsp antagonist: antagonizes gsp, the McCune-Albright syndrome mutation; gsp-mutant cells, cAMP HTRF, 30 min; control for the full effect not named in the record; Potency, µM (doses to about 76.9 µM), for inactives: at the top dose activity change, negative = inhibition, actives largely listed as inhibitors; 340,000 compounds, 0.4% hits; active = falling curve of any shape with a large fitted effect; inconclusive = falling curve, mostly with a smaller effect; inactive = flat or rising curve; cell line not stated here;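 also: intracellular cAMP measured with PDE inhibitor Ro 20-1724 present during compound exposure; potency is read from the fitted curve at half-maximal effect; % is scaled to controls: 0 for no effect and ±100 for the full control effect; nearly all actives have a fitted effect of over 65% in size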
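G418-selected cells were plated in DMEM/10% FBS for 16-24 h at 37C, then treated with compounds plus the PDE inhibitor […] (300 uM solution added) for 30 min at 37C. Intracellular cAMP was measured by HTRF after 30 min lysis at room temperature.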
TRPML1 ag: human mucolipin-1 channel agonism; Q9GZU1; AID 624414; 410,000 compounds, 0.12% hits; TRPML1-expressing cells, Ca2+ dye fluorescence, FDSS; host cell line not named in the record; reference of the full effect not given here; activation, % (no concentration beside the values); in the data active = activation above about 50%; inconclusive = about 30% to 50%; inactive = below about 30%; also: 0% is about no effect; the text of the record puts the active cut at 80%
Target sequence (Q9GZU1 whole entry, looked up): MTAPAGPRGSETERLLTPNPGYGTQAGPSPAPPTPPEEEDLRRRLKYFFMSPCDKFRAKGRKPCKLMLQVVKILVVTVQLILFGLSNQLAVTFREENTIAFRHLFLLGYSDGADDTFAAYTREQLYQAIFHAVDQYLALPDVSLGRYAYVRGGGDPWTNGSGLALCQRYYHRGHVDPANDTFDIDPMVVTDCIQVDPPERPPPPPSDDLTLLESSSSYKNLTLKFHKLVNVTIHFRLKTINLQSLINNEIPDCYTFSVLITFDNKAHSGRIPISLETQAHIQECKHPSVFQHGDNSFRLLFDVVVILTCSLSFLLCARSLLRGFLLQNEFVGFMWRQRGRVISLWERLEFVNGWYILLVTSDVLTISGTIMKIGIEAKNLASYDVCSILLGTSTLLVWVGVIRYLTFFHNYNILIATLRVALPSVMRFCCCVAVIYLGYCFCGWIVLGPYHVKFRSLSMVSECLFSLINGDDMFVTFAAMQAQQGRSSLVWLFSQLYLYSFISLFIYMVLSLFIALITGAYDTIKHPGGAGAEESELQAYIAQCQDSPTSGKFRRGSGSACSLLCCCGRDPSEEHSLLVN
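Kinetic FDSS Ca2+ read in Tet-induced TRPML1-DL cells (ABD Ca8 dye plus quencher, 45-90 min RT loading): baseline, then compound, then 110 s agonist window; EC80 agonist 54-4 at 4uM final added afterwards for a 110 s antagonist window.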
TRPML1 inh: blocks the human TRPML1 channel | Q9GZU1 | TRPML1-inducible cells, Ca2+ dye fluorescence, FDSS; hits give low values; inhibition of EC80 agonist-evoked calcium signal | activity change, negative = inhibition, % (test concentration not listed) | 390,000 compounds, 0.02% hits; in the data active means activity change below about -50%; inconclusive means about -30% to -50%; inactive means above about -30%;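 also: stimulus is agonist 54-4 at its EC80 concentration; % is scaled to controls: 0 for no effect and ±100 for the full control effect; compound concentration not given in the record; the text of the record puts the active cut at -80%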
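TRPML1-DL cells, Tet-induced overnight (~16 h, 37 °C) at 1,500 cells/well, were loaded with Ca8 no-wash dye plus quencher for 45-90 min at room temperature. Compounds were pinned during FDSS kinetic reading; agonist 54-4 at EC80 (4 uM final) then added.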
Menin-MLL FL inh: inhibitors of human menin-MLL interaction, wild-type MLL peptide. AID 1766. Fluorescence polarization, fluorescein-MLL peptide displacement from menin. FP activity change, % at 61.4 µM. 290,000 tested, under 10 active; inconclusive = falling polarisation curve, or a change in total fluorescence; inactive = total fluorescence flat and polarisation flat or rising; no compound was filed as active; the % refers to the polarisation; negative = inhibition;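 also: % of control where 0% means no effect; inhibitors lower the polarisation; unlabelled MLL peptide was the positive control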
gsp agonist: agonists of gsp mutant (McCune-Albright syndrome) | gsp mutant cells, cAMP HTRF, 30 min; control for the full effect not named in the record | Potency, µM (highest dose often 76.9 µM), for inactives: at the top dose activation (cAMP increase), hits mostly activators | 340,000 compounds, 0.13% hits; active = well fitted activation curve with a large enough effect; inconclusive = small, poorly fitted or top-dose-only effect, or another doubt; inactive = no such curve, though single readings can be large or run the other way; cell line not stated here;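 also: phosphodiesterase inhibitor Ro 20-1724 added with compounds to block cAMP breakdown; potency is read from the fitted curve at half-maximal effect; nearly all actives have a fitted effect of over 60% in size; about a fifth of the inactives were tested at one dose only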
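Cells in DMEM/10% FBS with G418 were pretreated with compounds in DMSO plus […] (300 uM stock) for 30 min at 37C. cAMP was measured by HTRF (cAMP-d2 plus anti-cAMP antibody-K) after 30 min at room temperature.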
Numbers without * were called inactive; ? = inconclusive; · = no result given; & = joins results of further samples; [ ] = another dose, or the depositor's remark.

SMILES	ClpP mod	gsp antagonist	TRPML1 ag	TRPML1 inh	Menin-MLL FL inh	gsp agonist
COc1ccc(-n2nnnc2SCC(=O)N2CCCc3ccccc32)cc1OC	1.9%	1.6%	-0.7	1.8	1.3	11.0%
CCCNC(=O)CCc1c(C)nc2nc(-c3cc(OC)cc(OC)c3)nn2c1C	-1.7%&0.2%	-39.8%	0.0&0.7	-13.2&15.1	1.6	-56.8%[inhibitor]
Cc1ccc(Oc2ncccc2/C=N/OCc2ccc(Cl)cc2Cl)cc1	-20.0%	-12.7%[15.4 µM]	0.2	-11.5	2.9	7.5%
CCN(CC)c1ccc(NC(=O)c2sc3nc4c(cc3c2N)CN(C)CC4)cc1	1.8%	·	-0.4	-7.7	·	·
COC(=O)C1=C(C)N(Cc2ccccc2)C(=NCc2ccccc2)N[C@H]1c1cccc(F)c1	-1.8%	16.7%	-0.4	53.0	-5.2	·
COC(=O)COc1nsnc1N1CCOCC1	0.8%	10.2%	0.0	-6.3	1.1	22.0%
COc1ccc(OC)c(C=NNC(=O)c2ccccc2NS(=O)(=O)c2cccs2)c1	-21.0%	?	-0.5	14.1	·	-71.6%[inhibitor]
Cc1ccc(NC(=O)CCN2CCN(CCO)CC2)cc1	·	5.4%	0.2	4.4	·	-54.9%[inhibitor]
CN(C)c1ccc(/C=C/c2ccc3c4ccccc4ccc3[n+]2-c2ccccc2)cc1	-18.4%	39.8µM*	3.7&-0.4	55.0	?	-5.2%[15.4 µM]
CC1(C)CC(=O)C2=C(C1)N(c1ccc(F)cc1)C(=O)CC2c1cccnc1 (configuration not stated)	-0.7%	4.9%	-0.4	26.5	1.7	11.2%
CCOC(=O)c1ccc(NC(=O)c2nc[nH]c2C(=O)N(CC)CC)cc1	-3.4%	-3.4%	-0.2	-22.1	0.1	-4.5%
CCCc1nnc(NC(=O)CN2CCOCC2)s1	-1.8%	4.8%	-0.2	16.6	-0.4	5.5%
CCC(=O)c1cc(F)c(N2CCN(C(=O)Cc3ccccc3)CC2)cc1C	3.4%	-18.6%	-0.3	5.7	-0.9	-8.3%
COc1ccc(C(=O)NC(C)CCc2ccccc2)cc1 (configuration not stated)	0.4%	4.1%	0.3	-13.3	7.9	11.5%[15.4 µM]
CCN(CC(=O)NCc1cccs1)C(=O)c1cc(S(=O)(=O)NCc2ccccc2)ccc1C	0.4%	-2.4%	-0.6	5.3	·	-37.5%[inhibitor]
O=C(NCc1ccco1)c1ccccc1O	4.3%	3.1%	-0.5	4.0	1.6	-0.1%
COc1ccc(N2CC(NC(=O)c3ccc4c(c3)OCO4)CC2=O)cc1OC (configuration not stated)	-9.7%	·	-0.1	29.3	·	·
NNC(=O)c1ccc(N2CCc3ccccc32)c([N+](=O)[O-])c1	0.5%	-20.8%	1.4	32.6	-5.9	4.5%[15.4 µM]
COC(=O)c1nc2n(n1)C(c1ccc(OC)c(OC)c1OC)C1=C(CCCC1=O)N2 (configuration not stated)	-0.6%	3.0%	-0.6	-4.8	7.4	0.0%
Cc1c(N=C2C(=O)Nc3ccccc32)c(=O)n(-c2ccccc2)n1C	0.7%	-1.4%	-0.8	-7.6	1.9	-40.6%[inhibitor]
CCc1cccc(NC(=O)Cn2ncn3c(cc4ccccc43)c2=O)c1	?	6.7%	0.2	-2.1	1.2	-20.3%
Cc1cccc(OCC(=O)NCC(=O)N/N=C/c2cccnc2)c1	·	6.8%	-1.1	-8.7	0.2	?
CC(c1ccccc1)n1cc(C(=O)NCc2ccncc2)nn1 (configuration not stated)	1.0%	14.5%	0.6	11.7	1.7	-138.3%[inhibitor]
COc1cn(-c2ccccc2)nc1C(=O)NCc1ccc(C)cc1	0.5%	2.4%	0.3	11.5	-3.1	-3.0%[15.4 µM]
CCOC(=O)C1CCN(C(=O)CSCCSCC(=O)N2CCC(C(=O)OCC)CC2)CC1	-1.1%	-17.7%	1.1	1.9	0.8	13.8%
Cn1cccc1/C=C(/C#N)c1ccc(F)cc1	?	-6.9%	-0.8	7.7	0.4	16.8%[15.4 µM]
CC(=O)NCCc1ccc(C(=O)COC(=O)c2cccs2)cc1	0.3%	·	-0.4	-3.2	·	-36.7%[inhibitor]
CCC(=O)NNc1nc2c(C)cc(C)cc2s1	·	-2.1%	0.6	7.7	-1.7	-8.9%
COc1ccc(CC(=O)NC2CC(C)(C)NC(C)(C)C2)cc1OC	·	-11.5%	0.3	-2.0	-2.8	?
O=S(=O)(Oc1ccc(Cl)cc1)c1cccc2cccnc12	0.3%	-21.1%	-0.2	33.7	3.8	19.1%[15.4 µM]
CC1(C)CC(=O)C2=C(C1)OC1=C(C(=O)CC(C)(C)C1)C2c1ccccc1Cl	-26.8%	·	-0.6	-12.6	·	-68.7%[inhibitor]
COCCNC(=O)COC(=O)/C=C/c1c(C)nn(Cc2ccc(Cl)cc2Cl)c1Cl	0.0%	?	3.7	-4.9	0.9	12.3%
CCOC(=O)c1nn(-c2ccccc2)c2nc(Nc3ccccc3)cc(=O)n12	-8.7%	-6.7%	-0.1	3.1	6.4	-12.3%
CS(=O)(=O)N(CC(=O)N1CCCCC1)Cc1ccc(Cl)cc1	0.7%	-9.3%	0.5	31.7	-0.7	22.2%
COC(=O)c1sccc1NC(=S)Nc1ccc(C)cc1	0.5%	-2.3%	0.4	13.2	2.0	-3.2%[15.4 µM]
Cc1nc(NC(=O)CN2CCC(O)(c3ccc(F)cc3)CC2)sc1C	-1.1%	8.4%	0.6	14.3	1.7	-10.0%
COc1ccc(OCC(=O)Nc2ccccc2C(=O)N2CCCC2)cc1	-1.7%	-29.9%	0.0	3.4	-0.7	-14.4%
O=C(Cc1cccs1)N/N=C\c1ccc([N+](=O)[O-])s1	-0.7%	10.6%	1.4	19.3	-1.1	-6.3%
C=C(C)Cn1c(-c2cccs2)n[nH]c1=S	0.4%	0.8%	-1.1	-14.1	2.5	-13.8%[15.4 µM]
Cc1cccc(NS(=O)(=O)c2ccc3c(c2)CCN3C(=O)CCC(=O)O)c1C	-0.8%	·	-0.4	-9.1	·	·
O=[N+]([O-])c1cc(-c2nc(-c3ccccc3)no2)ccc1NCC1CCCO1 (configuration not stated)	-1.1%	·	-0.7	-10.1	·	·
COc1ccc(CN2CC(COCc3ccccc3)Oc3ccccc3S2(=O)=O)cc1 (configuration not stated)	0.6%	-7.9%	4.1	47.9	·	·
O=S(=O)(N(Cc1ccccc1)[C@H](CO)Cc1ccccc1)N(Cc1ccccc1)[C@H](CO)Cc1ccccc1	-1.2%&-0.9%	4.9%	1.0&1.3	-9.0	·	·
O=C(Nn1c(-c2ccccc2)nc2ccccc2c1=O)c1cccs1	1.5%	3.3%	-0.6	8.0	21.6	21.7%
COc1ccc(-c2nc3sc(CCNS(=O)(=O)c4ccccc4)c(C)n3n2)cc1	-3.7%	·	2.0	-2.8	·	·
Nc1ccc(CCc2ccc(N)cc2)cc1	·	-12.6%	0.1	35.2	·	-0.2%[15.4 µM]
O=C(CCS(=O)(=O)c1ccccc1)Nc1ccccc1N1CCOCC1	-3.9%	2.9%	-0.4	-1.7	-4.2	-3.9%[15.4 µM]
O=C(CSc1ncn[nH]1)N1N=C2/C(=C\c3ccco3)CCCC2C1c1ccco1 (configuration not stated)	·	-0.8%	1.0	4.8	·	0.1%
Cc1cc(C)c2c(N)c(C(=O)Nc3ncc(C)s3)sc2n1	?	1.9%	-1.1	2.9	1.1	7.4%
O=C(N/N=C1/CCCc2ccccc21)C(c1ccccc1)c1ccccc1	-0.5%	1.4%	1.9	-4.1	-1.8	35.1%
O=C(NCCCc1ccccc1)c1cccc(NC(=O)C2CC2)c1	-1.5%	-1.0%	-1.1	2.3	·	·
CCCn1c(N)c(C(=O)CN(C)CC(=O)Nc2c(Cl)cccc2Cl)c(=O)[nH]c1=O	-0.6%	-1.8%	-0.2	4.2	·	?
N#CC(c1ccc(Cl)nn1)c1ccc(Cl)cc1Cl (configuration not stated)	-0.5%	-7.3%	-0.8	-2.5	-1.3	13.0%
CCC(C)c1ccc2oc(-c3ccc(NC(=O)Cn4cnc5c(=O)n(C)c(=O)n(C)c54)cc3)nc2c1 (configuration not stated)	11.2µM*	3.4%	1.3	-4.3	-0.2	-1.4%
O=[N+]([O-])c1ccc2[nH]c3nc4ccccc4nc3c2c1	0.4%	-1.9%	-0.2	-2.9	3.5	-51.4%[inhibitor]
CC(C)C1N(C(=O)CN2CCCC2)CCN1S(=O)(=O)c1ccccc1 (configuration not stated)	-1.2%	3.1%	0.0	-5.0	1.7	15.0%
O=c1cc(O)c(-c2ccc(Cl)c(Cl)c2)c(Cl)[nH]1	·	2.5%	0.8	-9.6	10.8	-37.1%[inhibitor]
CCCSc1nnc(Nc2ccccc2C)s1	-0.5%	3.2%	1.8	-3.3	6.0	0.0%
COCCNC(=O)c1c(CS(=O)(=O)c2ccccc2)noc1C(=O)NCc1ccccc1	-0.1%	-8.5%	-1.0	13.2	·	?
C/C(=N/NC(=O)CN(c1ccccc1)S(=O)(=O)c1ccccc1)c1ccccc1O	9.6%	-19.3%	·	·	3.4	9.5%

Next part
SMILES	ClpP mod	gsp antagonist	TRPML1 ag	TRPML1 inh	Menin-MLL FL inh	gsp agonist
COc1cccc(N=CC=C2OC(C)(C)C(C)(C)O2)c1	·	-7.9%	0.8	3.3	2.3	-48.2%[inhibitor]
O=C(Cn1cnc2c(NCc3ccccc3)ncnc21)NCc1ccc2[nH]ccc2c1	0.7%	2.0%	0.9	39.3	·	·
COC(=O)Nc1nnc(CCc2ccccc2)s1	-7.1%	0.7%	0.4	20.3	-0.9	3.2%
COc1ccccc1C(=O)Nc1ccc2oc(-c3ccc(F)cc3)nc2c1	20µM*	0.8%	-0.4	7.9	0.1	-10.5%
CC(C)(C)CC(=O)NC(=S)N1CCCCCC1	-2.1%	16.9%	2.0	2.0	0.1	-4.0%
Cc1sc2ncnc(Sc3ccccc3C(=O)O)c2c1C	·	15.4%	-0.5	0.8	-3.8	108.4%[15.4 µM]
CCCn1c(SCC(=O)Nc2ccccc2N2CCCCC2)nc2c1c(=O)n(C)c(=O)n2C	-2.0%	3.4%	4.1	22.6	7.9	-6.2%
COc1cccc(C2Nc3cccc4cccc(c34)N2)c1	·	1.9%	0.3	12.8	?	9.7%[15.4 µM]
Cc1c(NC(=O)c2ccc(F)c(S(=O)(=O)N3CCOCC3)c2)c(=O)n(-c2ccccc2)n1C	0.3%	11.6%	-0.8	10.1	0.2	8.6%
CCCOc1ccc(NC(=O)CC2C(=O)N(c3ccc(C)cc3)C(=O)N2CCc2ccncc2)cc1 (configuration not stated)	1.4%	·	-0.3	-7.1	·	·

Bioassay records as filed in PubChem BioAssay.
